Compound activity as filed in PubChem.
HSV augment = HSV replication enhancement; maximum fold increase; actives 0.005% (n = 220,000); AID 1956; HSV replication augmentation in cells, fold increase;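 active = peak rise of 1.5-fold or more in the series; tested in PC3 cells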;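 note: first round at 10 µM; read as green reporter fluorescence; hits show the peak of a series up to 25 µM; 1 = signal of infected wells without compound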
GALR2 ag = GALR2 (human) receptor agonism; O43603; activation, %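 (tested at 5 µM)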; GALR2-expressing cells, agonist activation read-out; actives 0.48% (n = 140,000);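 active = above mean plus 3 SD of all compounds, about 5% in these data, not always enough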;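 note: 0% = vehicle buffer wells and 100% = reference agonist at full effect; tested in CHO reporter cells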
Target sequence (O43603 whole entry, looked up): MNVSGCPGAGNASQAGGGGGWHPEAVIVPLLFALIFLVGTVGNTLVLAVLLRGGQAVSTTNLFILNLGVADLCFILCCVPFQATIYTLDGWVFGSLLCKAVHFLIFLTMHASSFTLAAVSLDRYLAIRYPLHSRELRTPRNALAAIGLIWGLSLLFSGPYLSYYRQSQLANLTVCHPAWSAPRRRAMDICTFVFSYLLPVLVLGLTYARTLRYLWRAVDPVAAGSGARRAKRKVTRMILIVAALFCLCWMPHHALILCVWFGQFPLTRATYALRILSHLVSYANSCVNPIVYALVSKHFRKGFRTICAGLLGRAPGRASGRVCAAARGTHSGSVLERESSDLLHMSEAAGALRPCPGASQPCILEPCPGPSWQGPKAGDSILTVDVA
RGS16-Gao = RGS16-Galphao interaction regulator (human) | O15492+P09471 | bead-based flow cytometry RGS16-Galphao binding, fluorescence; actives lie on both sides | binding response (% of control), % at 10 µM | actives 0.38% (n = 220,000);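 active = below 25% or above 175%, edge rows of some plates excepted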;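 note: Galphao activated by GDP with aluminum fluoride before binding; 100% = wells without compound and 0% = beads without RGS; some results beyond the cut were filed as inactive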
Target sequence (O15492 whole entry, looked up): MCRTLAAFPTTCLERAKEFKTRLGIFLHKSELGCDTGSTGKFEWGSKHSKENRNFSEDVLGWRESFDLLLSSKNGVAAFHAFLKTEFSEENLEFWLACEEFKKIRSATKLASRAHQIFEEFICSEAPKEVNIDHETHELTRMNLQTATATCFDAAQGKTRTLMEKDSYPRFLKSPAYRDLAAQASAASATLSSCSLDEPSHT
Target sequence (P09471 whole entry, looked up): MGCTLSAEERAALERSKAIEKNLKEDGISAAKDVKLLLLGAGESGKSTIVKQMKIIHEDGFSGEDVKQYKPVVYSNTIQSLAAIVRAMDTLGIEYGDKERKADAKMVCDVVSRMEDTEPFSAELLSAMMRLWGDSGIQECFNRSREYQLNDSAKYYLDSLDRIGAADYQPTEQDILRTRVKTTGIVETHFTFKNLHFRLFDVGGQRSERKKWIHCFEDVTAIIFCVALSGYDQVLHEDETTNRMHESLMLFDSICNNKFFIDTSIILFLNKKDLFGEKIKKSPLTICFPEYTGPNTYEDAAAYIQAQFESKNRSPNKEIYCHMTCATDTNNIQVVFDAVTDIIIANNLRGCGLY
PKD1 kinase inh = inhibitors of human PKD1 kinase. inhibition, %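 (about 10 µM by stock and volumes)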. Q15139. actives 0.056% (n = 200,000). PKD1 kinase fluorescence polarization assay;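 active = inhibition of 50% or more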;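 note: controls were vehicle for no effect and a reference inhibitor for full effect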
Insulin prom inh = TRM-6 insulin promoter activity inhibition; TRM-6 cells (human fetal islet line), insulin promoter-eGFP reporter, imaging; reporter expression induced with tamoxifen; inhibition, % at 2 µM; actives 0.9% (n = 130,000);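 active = inhibition above the mean plus 3 SD, with well images judged a real hit on visual review, cut at about 60% in these data, passing the limit was not always enough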
Insulin prom inh cell count = also measured in Insulin prom inh; calls as there; normalized cell count, %; measured here: cell count, toxicity; reference of the scale not given here;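 cells exposed to compound for 48 h; stained nuclei by imaging scaled within each plate; lower means fewer cells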
HSV augment primary fold = recorded beside HSV augment, whose call it bears; fold increase; compound at 10 µM; measured here: primary screen fold increase 10 uM; tested in PC3 cells;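 GFP signal in the first replicate; 1 = infected wells without compound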
The depositor's hits bear a star; i = inactive; x = no result given; & = joins results of further samples.

SMILES	HSV augment	HSV augment primary fold	GALR2 ag	RGS16-Gao	PKD1 kinase inh	Insulin prom inh	Insulin prom inh cell count
CCOC(=O)c1ccc(Nc2ccc(-c3ccc(OC)c(OC)c3)nn2)cc1	x	x	6.7	98	-3	14	61
Cc1cc(Cl)ccc1OCCCC(=O)Nc1cccnc1	i	1	-1.2	102	0	-100	88
Cc1cc(C(F)(F)F)cc(NNC(=O)NC(=O)c2ccc(Cl)cc2)n1	i	0.97	x	105	x	x	x
Cc1nc(SCC(=O)Nc2cc(C)on2)c2c3c(sc2n1)CCCC3	i	0.88	-1.6	102	-6	x	x
Cc1c(Cl)c(C(=O)NC2C3CC4CC(C3)CC2C4)nn1C (stereo not given)	i	0.98	-0.2	x	-5	5	137
COc1cc2c(cc1NC(=O)C(C)N1CCN(S(=O)(=O)c3ccccc3[N+](=O)[O-])CC1)oc1ccccc12 (stereo not given)	i	1	-1.0	104	5	5	102
O=C(CSc1nc2c(c(=O)n1-c1ccc(F)cc1)SCC2)N1CCCC1	i	0.92	-0.6	103	-6	43	82
NC(=O)NNc1ncc(C(F)(F)F)cc1Cl	i	0.96	x	106	1	-18	103
O=S1(=O)c2ccccc2N=NN1Cc1cc(Cl)cc(Cl)c1	i	1	-1.2	97	-1	x	x
CC(C)(C)OC(=O)COc1cc(O)c2c(=O)cc(-c3ccccc3)oc2c1	i	0.99	-0.1	73	-11	x	x
S=C1NC2(CCCCC2)N=C1c1ccccc1	i	0.92	-1.4	99	-2	0	78
O=C(c1nsc(Cl)c1Cl)N1CCCCC1	i	0.87	-1.3	97	-6	-43	68
C/C(=N\NC(=S)NCCc1ccccc1)c1ccc(C#N)cc1	i	1	-1.2	116	1	-8	81
COc1ccc(-c2ccc(OC)cc2)cc1	i	1	-1.2	x	-3	-94	167
Cc1nc(Sc2ccccc2)c(C#N)cc1-c1ccccc1	i	1	-2.3	67	-8	x	x
CC(C)Oc1ccc(C(=O)Nc2ccc(N3CCCC3)cc2)cc1	i	0.9	-1.3	104	4	-37	89
O=C(c1n[nH]c2ccccc12)N1CCN(c2ccc(F)cc2)CC1	i	0.97	x	103	1	x	x
CCCCCCC1CC(=O)NC(=O)N1 (stereo not given)	i	1	x	103	x	x	x
COc1ccccc1NS(=O)(=O)c1ccc(/C=C/C(=O)O)cc1	i	0.94	x	102	-5	x	x
Cc1cccc(C)c1Nc1nc2ccccc2o1	i	1.1	-0.9	111	10	29	35
O=C(COc1ccc(S(=O)(=O)NCCc2ccccc2)cc1)N1CCCC1	i	0.88	-1.7	102	-9	12	71
CC(Oc1ccc(NC(=O)c2ccco2)cc1)C(=O)N1c2ccccc2CC1C (stereo not given)	i	0.92	-1.2	370	4	x	x
Cc1noc(C)c1C(=O)OCC(=O)NCCc1ccc(Cl)cc1	i	0.81	-1.1	106	1	x	x
Cc1ccc(S(=O)(=O)N2CCCC2c2nc3ccccc3s2)cc1 (stereo not given)	i	0.89	-1.5	104	-9	25	106
Cc1cc(N2CCOCC2)nc(N2CCOCC2)n1	i	0.86&0.96	x	98&88	-3	x	x

Additional compounds follow.
SMILES	HSV augment	HSV augment primary fold	GALR2 ag	RGS16-Gao	PKD1 kinase inh	Insulin prom inh	Insulin prom inh cell count
Cc1cc2c(ncn2C(C)C)c(N)c1C	i	0.89	-1.2	103	-17	x	x
CC(=O)NS(=O)(=O)c1ccc(N=NN2CCCCC2)cc1	i	1	-1.1	114	-11	37	135
CCN(CC)CCNC(=O)c1cn(CC)c2ccc(S(=O)(=O)N(C)C)cc2c1=O	i	0.81	-2.0	105	-4	x	x
CCCC(CCC)=NNC(=O)CN(Cc1ccccc1)S(=O)(=O)c1ccccc1	i	0.87	0.6	97	1	30	124
Cn1c(=O)cc(SCC(=O)NCc2cccnc2)c2ccccc21	i	1.1	-0.1	101	-10	-43	145
CC(C(=O)NCc1ccco1)c1ccc([N+](=O)[O-])cc1 (stereo not given)	i	1	x	98	-8	x	x
CC1Cc2ccccc2N1C(=O)CSc1nnnn1C (stereo not given)	i	1	-1.6	37	-4	-10	91
O=C(Nc1c2ccccc2nc2ccccc12)C(Cl)(Cl)Cl	i	0.91	10	104	2	7	124
COc1cccc(CNC(=O)c2cc3ccccn3n2)c1	i	0.88	-3.4	118	4	x	x
O=C(CCCN1C(=O)/C(=C\c2cccs2)SC1=S)Nc1cccc(C(=O)O)c1	i	0.93	x	112	-3	-7	114
C=CCN(CC=C)CCOc1ccccc1[N+](=O)[O-]	i	0.91	x	97	-4	x	x
O=C(CCN1CCN(Cc2ccccc2)CC1)Nc1ccc(OCc2ccccc2)cc1	i	0.75	-2.4	142	4	-111	36
CCc1cccc(C)c1NC(=S)N1CCCC1C(=O)O (stereo not given)	i	1.1	0.7	108	-1	x	x
CCOC(=O)CCC(=O)OCC(=O)NC(C)C1CC2CCC1C2 (stereo not given)	i	0.91	-1.0	103	-3	7	100
CC1(C)CC(=O)C=C(NCCO)C1	i	0.96	-0.6	106	0	-100	114
CCN(CC)C(=O)c1ccc2nc(-c3ccccc3)c(-c3ccccc3)nc2c1	i	0.92	0.1	104	-3	67*	218*
COC(=O)c1sccc1NC(=O)CSc1ccccc1NC(=O)CNC(C)C	i	0.83	x	106	-6	0	75
COC(=O)c1sc(SC)c2c1CC(C)(C)C/C2=N/O	i	0.98	x	104	x	x	x
CN1CCN(C(=O)CCCOc2ccc(Cl)cc2Cl)CC1	i	0.9	-0.3	115	5	x	x
COc1ccc(Nc2nc(Cl)nc(NCc3ccco3)n2)cc1	i	0.93	-2.7	98	-2	x	x
C/C(=N/NS(=O)(=O)c1ccc(C)cc1)[C@H]1C[C@@H]1c1ccccc1	i	0.88	x	105	x	x	x
O=C(NCCc1ccccc1)C(=O)N/N=C/c1ccccc1C(F)(F)F	i	0.87	9.6	105	0	x	x
O=C(N/N=C/c1cccnc1)c1ccccc1[N+](=O)[O-]	i	1.1	-1.3	103	-5	3	81
c1ccc2c(CNCCN3CCOCC3)cccc2c1	i	0.83	-4.3	24	-5	-3	99
Cc1cc(C(=O)COC(=O)C2=NN(c3ccccc3)C(=O)CC2)c(C)n1CC(F)(F)F	i	0.93	x	98	2	0	96

Another view of part of the listing above.
structure,HSV augment,HSV augment primary fold,GALR2 ag,RGS16-Gao,PKD1 kinase inh,Insulin prom inh,Insulin prom inh cell count
CCOC(=O)c1ccc(Nc2ccc(-c3ccc(OC)c(OC)c3)nn2)cc1,x,x,6.7,98,-3,14,61
Cc1cc(Cl)ccc1OCCCC(=O)Nc1cccnc1,i,1,-1.2,102,0,-100,88
Cc1cc(C(F)(F)F)cc(NNC(=O)NC(=O)c2ccc(Cl)cc2)n1,i,0.97,x,105,x,x,x
Cc1nc(SCC(=O)Nc2cc(C)on2)c2c3c(sc2n1)CCCC3,i,0.88,-1.6,102,-6,x,x
Cc1c(Cl)c(C(=O)NC2C3CC4CC(C3)CC2C4)nn1C (stereo not given),i,0.98,-0.2,x,-5,5,137
COc1cc2c(cc1NC(=O)C(C)N1CCN(S(=O)(=O)c3ccccc3[N+](=O)[O-])CC1)oc1ccccc12 (stereo not given),i,1,-1.0,104,5,5,102
O=C(CSc1nc2c(c(=O)n1-c1ccc(F)cc1)SCC2)N1CCCC1,i,0.92,-0.6,103,-6,43,82
NC(=O)NNc1ncc(C(F)(F)F)cc1Cl,i,0.96,x,106,1,-18,103
O=S1(=O)c2ccccc2N=NN1Cc1cc(Cl)cc(Cl)c1,i,1,-1.2,97,-1,x,x
CC(C)(C)OC(=O)COc1cc(O)c2c(=O)cc(-c3ccccc3)oc2c1,i,0.99,-0.1,73,-11,x,x
S=C1NC2(CCCCC2)N=C1c1ccccc1,i,0.92,-1.4,99,-2,0,78
O=C(c1nsc(Cl)c1Cl)N1CCCCC1,i,0.87,-1.3,97,-6,-43,68
C/C(=N\NC(=S)NCCc1ccccc1)c1ccc(C#N)cc1,i,1,-1.2,116,1,-8,81

The listing continues.
SMILES	HSV augment	HSV augment primary fold	GALR2 ag	RGS16-Gao	PKD1 kinase inh	Insulin prom inh	Insulin prom inh cell count
O=C(NCc1ccco1)c1nc2ncccn2n1	i	0.99	-0.2	102	-1	-8	136
CN(C(=O)CO/N=C/c1ccc(OC(F)F)cc1)C1CCS(=O)(=O)C1 (stereo not given)	i	1.1	x	100	-6	x	x
COc1ccc(C(=O)Nc2nc3ccccc3c(=O)[nH]2)cc1	i	1.1	-2.1	62	-12	8	117
CCOC(=O)CN1C(=O)S/C(=C/c2cc(C)n(-c3ccccn3)c2C)C1=O	i	0.91	-1.5	97	-1	-40	157
Cc1nnc(C)n1/N=C/c1cccc(Oc2ccccc2)c1	i	0.9	-0.3	100	-8	-12	78
O=C(NC(=S)Nc1cccc2cccnc12)c1ccccc1	i	1	-3.2	109	-13	48	94
COc1ccc(/C(O)=C2/C(=O)C(=O)N(CCCN(C)C)C2c2ccc(Cl)cc2)cc1OC (stereo not given)	i	1	-0.2	x	-10	11	208
COc1ccc(C(=O)CN2C(=O)NC3(CCCc4ccccc43)C2=O)cc1OC (stereo not given)	i	0.87	-0.2	114	-5	-5	58
O=C(NCc1ccco1)c1ccc(Oc2ccccc2)cc1	i	0.76	-2.2	98	3	-13	157
Cc1ccccc1NS(=O)(=O)c1cc(C(=O)N2CCCC2)ccc1C	i	1	-0.4	102	-4	-18	52
COc1ccc(/C=C/C(=O)NCc2nc3ccccc3[nH]2)cc1OC	i	1	x	97	-2	-13	124
Cc1ccc(NC(=O)COc2ccc(S(=O)(=O)N3CCOCC3)cc2)cc1	i	1	-2.3	100	0	14	87
Cc1cc(C)nc(CCNC(=O)c2cc(COc3ccc(F)cc3F)on2)n1	i	1.1	x	98	1	x	x
O=C(c1ccco1)N1CCn2cccc2C1c1ccccc1 (stereo not given)	i	0.99	x	203	-6	14	71
CCc1ccc2[nH]c3nc(SCc4nnc(-c5ccccc5)o4)nnc3c2c1	i	0.84	x	100	x	x	x
CCC(C)NS(=O)(=O)c1ccc(F)c(C(=O)Nc2c(F)cc(F)cc2Br)c1 (stereo not given)	i	1	x	98	-4	-143	50
Cn1sc(NC(=O)c2ccc(Cl)cc2)nc1=O	i	0.91	-0.8	94	-10	x	x
CC(C)On1c(SC(C)C)nc2ccccc2c1=O	i	1	-1.3	92	-5	-9	58
CC1(C)CC(=O)C(C(c2cccnc2)C2C(=O)CC(C)(C)CC2=O)C(=O)C1	i	1.2	-0.3	102	-8	x	x
CCOc1cccc(-c2nnc3sc(-c4cccs4)nn23)c1	i	0.92	-0.4	100	-1	-48	126
CCCN(CCC)C(=O)/C=C/c1cccc([N+](=O)[O-])c1	i	0.98	x	105	x	x	x
COc1ccc(-c2csc(NC(=O)c3ccoc3C)n2)cc1	i	0.95	x	105	-9	x	x
Cc1ccc(-n2c(C)nnc2SCC(=O)N2CCc3ccccc3C2)cc1C	i	0.9	-1.3	94	-6	x	x
COc1cc(SC)ccc1C(=O)N1CCCCCC1	i	0.93	0.0	102	-2	5	100
Cc1ccc(SCCNC(=O)c2ccc(C)c([N+](=O)[O-])c2)cc1	i	0.84	-1.6	104	-5	3	107

Remaining list, next part:
SMILES	HSV augment	HSV augment primary fold	GALR2 ag	RGS16-Gao	PKD1 kinase inh	Insulin prom inh	Insulin prom inh cell count
COc1ccc(-c2nnc(SCc3nnc(-c4ccccc4)o3)n2-c2ccccc2)cc1	i	0.97	-2.4	86	-12	14	89
CCOC(=O)c1c(NC(=O)Cn2cnc3sc(C)c(-c4ccccc4)c3c2=O)sc(C)c1C	i	0.86	-2.3	104	-11	-28	120
O=S(=O)(c1ccccc1)N1CN(Cc2ccc(F)cc2)c2nc3ccccc3nc21	i	0.95	x	100	x	x	x
N=c1ccn(Cc2ccc(Cl)cc2)cc1	i	0.94	-1.2	100	-10	39	131
CCOC(=O)c1[nH]c2ccccc2c1NC(=S)Nc1ccccc1C	x	x	0.3	111	6	40	100
Nc1cc(=O)[nH]c(SCC(=O)Nc2ccccc2-c2ccccc2)n1	i	0.96	x	96	3	x	x
CCCCNC(=O)c1cn(CC)c2cc(N3CCN(C)CC3)c(F)cc2c1=O	i	0.81	x	102	x	x	x
CC(OC(=O)c1ccc(NS(=O)(=O)c2cccs2)cc1)C(=O)N(C)C1CCCCC1 (stereo not given)	i	1.2	0.6	99	51*	x	x
Brc1ccc(-c2nnc3sc(CNC4CCCC4)cn23)cc1	i	0.87	-1.2	106	-9	37	90
Cc1ccc(NC(=O)CSc2nnc(-c3ccco3)o2)c(C)c1	i	0.91	x	105	-13	x	x
Cc1nnc(NC(=O)CSc2nnc(Cc3cccn3C)n2-c2ccccc2)s1	i	0.76	-2.9	105	2	x	x
Cc1sc2ncnc(N[C@@H](CCC(=O)O)C(=O)O)c2c1C	i	1	-1.3	100	0	x	x
COc1ccc(N2CCN(C(=O)Cc3ncc(C(F)(F)F)cc3Cl)CC2)cc1	i	1	-2.2	96	-5	0	129
CCOC(=O)c1c(NC(=O)c2cc(-c3cccc(O)c3)on2)sc(C(C)=O)c1C	x	x	-1.6	102	-7	10	101
